Rango complex inh: inhibitors of Rango-importin beta complex formation; AID 540263; Rango CFP/YFP FRET sensor + importin beta, 45 min; Q14974; Potency, µM (series often up to 92.2 µM), for the others: at the highest dose inhibition of complex formation; 0.031% of 340,000 active; active = rising FRET ratio curve, often small or poorly fitted; inconclusive = mostly compound fluorescence or quenching in the first reads; inactive = flat curves in all reads;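 also: potency is read from the fitted curve at half-maximal effect; 0% = DMSO wells and 100% = buffer wells lacking importin beta; nearly all actives have a fitted effect of over 15% in size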
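FRET biosensor Rango (snurportin 1 IBB between N-terminal EYFP and C-terminal Cerulean), 50 nM in PBS/1 mM DTT/0.02% Tween-20/0.1% BSA, preincubated 5 min RT with compound; 0.125 microM importin beta added, 45 min RT, CFP/YFP FRET ratio read.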
miR-21 reporter: raises the signal of a miR-21 reporter | HeLa miR-21 FLuc reporter, luciferase, 48 h | Potency, µM (titrated, usually from 38.3 µM), for inactives: at the highest dose reporter change, positive = more light | 340,000 tested, under 10 active | AID 2288; active = well fitted rising curve with a large enough effect; inconclusive = small, poorly fitted or top-dose-only effect; inactive = no such curve, though single readings can be large or run the other way;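 also: % of control where 0% means no effect; miR-21 action dims this reporter so a rising signal means less miR-21 action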
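HeLa cells stably expressing CMV-driven firefly luciferase with a downstream miR-21 binding sequence, endogenously expressing miR-21, were treated with titrations (up to about 40uM final) for 48 hours at 37 degree Celsius. Luciferase luminescence was read after lysis.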
GLA inh pH 4.5: inhibitors of human alpha-galactosidase A at pH 4.5. P06280. purified enzyme, 4-MU-alpha-Gal fluorescence, pH 4.5. activity change, negative = inhibition, % at 105 µM. 230,000 tested, under 10 active; inconclusive = small, poorly fitted or top-dose-only inhibition, or a rising curve; inactive = flat fitted curve, though single readings scatter; no compound was filed as active;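 also: 0% = full activity with enzyme and -100% = basal without enzyme; dose as in the result columns while the protocol names 77 µM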
Target sequence (P06280 whole entry, looked up): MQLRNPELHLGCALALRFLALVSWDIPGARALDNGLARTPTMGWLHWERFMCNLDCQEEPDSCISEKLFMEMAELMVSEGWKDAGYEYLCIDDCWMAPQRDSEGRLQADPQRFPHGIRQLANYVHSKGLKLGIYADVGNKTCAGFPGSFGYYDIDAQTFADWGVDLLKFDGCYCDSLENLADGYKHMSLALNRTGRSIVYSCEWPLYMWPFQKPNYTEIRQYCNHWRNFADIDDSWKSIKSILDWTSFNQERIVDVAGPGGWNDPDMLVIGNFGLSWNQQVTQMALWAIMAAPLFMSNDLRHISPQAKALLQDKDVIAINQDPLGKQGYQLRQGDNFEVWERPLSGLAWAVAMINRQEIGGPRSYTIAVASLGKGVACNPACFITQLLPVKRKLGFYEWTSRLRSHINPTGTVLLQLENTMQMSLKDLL
Rango dissoc inh: inhibition of RanGTP-driven Rango-importin beta dissociation | 0.071% of 340,000 active | O95149+P62826 | Potency, µM (highest dose often 46.1 µM), inactives show at the top dose activity change, negative = inhibition | Biochemical FRET Rango-importin beta, RanGTP-induced dissociation | AID 540253; active means falling FRET ratio curve, often poorly fitted, with flat reads before Ran was added; inconclusive means other falling curves, or compound fluorescence or quenching; inactive means flat or rising ratio curve;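 also: potency is read from the fitted curve at half-maximal effect; % of control where 0% means no effect; nearly all actives have a fitted effect of over 45% in size; -100% = wells without RanGTP and RCC1; the record marks most hits as doubtful in a second field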
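Rango FRET biosensor (snurportin-1 IBB flanked by N-terminal EYFP and C-terminal CFP10) at 0.1 uM, with 0.25 uM importin beta in PBS, 1mM DTT, 0.02% Tween-20, 0.1% BSA. 0.6 uM Ran, 2mM GTP and 0.2 uM RCC1 were then added for 45 min at room temperature. Inhibition read as loss of FRET rise.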
* hit, by the source's call; u = inconclusive; x = no result given; & = joins results of further samples; [ ] = another dose, or the depositor's remark. An excerpt (hit frequency here may not be typical).

SMILES	Rango complex inh	miR-21 reporter	GLA inh pH 4.5	Rango dissoc inh
Cc1cc(Cl)c(S(=O)(=O)N2CCCCCC2)cc1OCC(N)=O	0.1%	13%	-7	-20%
CCN(CC)C(=O)CSc1nnc(-c2ccccn2)n1Cc1ccccc1	-0.8%	-1%	-7	7%
CCOC(=O)N1CCC(N2Cc3cccc(C(=O)O)c3C2=O)CC1	u	-1%	0	-13%
Cc1cc(C)cc(NC(=O)CSc2nnc(-c3ccc(S(=O)(=O)N4CCCC4)cc3)o2)c1	5.5%	-10%	-15	2%
O=C(COC(=O)c1cc(S(=O)(=O)N2CCOCC2)ccc1O)Nc1ccc2c(c1)OCO2	3.5%	x	x	21%
Cc1ccc(C(=O)OCC(=O)Nc2ccc(C(N)=O)cc2)s1	0.4%	x	x	-2%
O=C(NCC1CCCO1)C1CCCN(S(=O)(=O)c2ccc(Br)cc2)C1 (stereo not drawn)	-2.6%	-1%	x	0%
COc1cc(S(=O)(=O)N2CCOCC2)ccc1NC(=O)COC(=O)c1ccc(Cl)nc1	4.3%	x	x	-7%
COC(=O)c1ccc(NC(=O)CN2CCN(CCO)CC2)cc1	3.8%	1%	x	-8%
NC(=O)c1cc[n+](Cc2ccc([N+](=O)[O-])cc2)cc1	5.1%	-6%	x	18%
C/C(=N\NC(=O)c1ccccn1)c1ccc(C(=O)O)s1	x	-54%	9	x
Cn1c(=O)n(C)c2cc(C(N)=O)ccc21	-4.0%	-5%	-6	-3%

Gathered by group: those above containing an aryl thioether with sulfur outside any ring (two)
SMILES	Rango complex inh	miR-21 reporter	GLA inh pH 4.5	Rango dissoc inh
CCN(CC)C(=O)CSc1nnc(-c2ccccn2)n1Cc1ccccc1	-0.8%	-1%	-7	7%
Cc1cc(C)cc(NC(=O)CSc2nnc(-c3ccc(S(=O)(=O)N4CCCC4)cc3)o2)c1	5.5%	-10%	-15	2%

Going on with the list:
SMILES	Rango complex inh	miR-21 reporter	GLA inh pH 4.5	Rango dissoc inh
O=S(=O)(Nc1ccc(O)c(Sc2nc3ccccc3s2)c1)c1ccc(F)cc1	2.1%	-2%	-4	4%
CC(C)N1C(=O)CCC1C(=O)NCCc1ccccc1 (stereo not drawn)	-1.9%	-4%	4	7%
CC(=O)Oc1ccc2c(C)cc(=O)oc2c1C(=O)c1ccccc1	-7.0%	0%	-5	9%
Cc1ccc(CNn2cnnc2SCC(=O)NC(C)(C)C)cc1	5.3%	-8%	1	-11%
NC(=S)n1[nH]c(-c2ccc([N+](=O)[O-])cc2)c(N=Nc2ccc(Cl)cc2)c1=O	-2.1%	1%	-8	-2%
O=C(O/N=C1\CCS(=O)(=O)c2sccc21)c1ccc(F)cc1	0.2%	0%	-6	7%
O=C(O)C1C2CCC(O2)C1C(=O)Nc1ccc(F)cc1 (stereo not drawn)	-2.8%	-13%	-14	-6%
CNCCC=C1c2ccccc2C=Cc2ccccc21	-5.9%	x	-4	-20%
CCc1nnc(NC(=O)c2ccc(Br)o2)s1	2.4%	-9%	x	-5%
CCCOC(=O)c1c(NC(=O)CCC(=O)O)sc2c1CCCCC2	-0.5%	-3%	-21[21.1 µM]	24%
CCCC1NC(C(=O)O)Cc2c1[nH]c1ccccc21 (stereo not drawn)	u	1%	x	u
Cn1c(=O)cc(OCC(=O)NCCc2ccc(Cl)cc2)c2ccccc21	-3.8%	3%	-6	-1%
CSc1nc2ccc(NC(=O)C3CCCO3)cc2s1 (stereo not drawn)	-0.4%	-42%	-8	-3%
CCOc1ccc(NC(=O)CCC(=O)NNC(=O)COc2ccccc2C)cc1	0.0%	-15%	3	-10%
COc1cc(NC(=O)CCN2CCN(c3ccccc3F)CC2)cc(OC)c1	-4.4%	-17%	-5	3%
O=C(/C=C/c1ccc(Cl)cc1)NCCc1ccccc1	-2.8%	-44%	x	-21%
CNC(=O)CN(c1cc(OCCOC)c(Cl)cc1Cl)S(=O)(=O)c1ccc(OC)cc1	-0.9%	28%	-1	-4%
CCOC(=O)NC(=O)C(=CNc1cccc(C)c1)C(=O)NC(=O)OCC	-1.4%	-3%	3	7%
O=C(CCN1C(=O)COc2ccccc21)NCCCN1CCc2ccccc2C1	-4.3%	-4%	-2	-8%
Cc1ccc(C)c(N2CCN(S(=O)(=O)c3ccc4c(c3)CC(=O)N4C)CC2)c1	2.5%	0%&4%	x	2%
CC(=O)Oc1ccc2c(c1)OC(c1ccccc1)CC21CC(C)(C)NC(=S)N1 (stereo not drawn)	1.1%	-2%	-3	-4%
CCOC(=O)c1c(C(F)(F)F)nc2ncccn12	-0.3%	4%	2	0%
CCOC(=O)c1c(N)sc(C(C)=O)c1C	4.3%	-32%	-6	9%
O=C(O)CCc1ccc(-c2ccc(Br)cc2)o1	-1.0%	-17%	-6	-5%
O=C(Nc1ccc(OC(F)(F)F)cc1)c1[nH]ncc1[N+](=O)[O-]	3.1%	-24%	2	2%
Cc1ccc(NC(=O)Cn2ccc([N+](=O)[O-])n2)cc1Cl	0.8%	-6%	0	15%
Cc1cccn2c(=O)c(/C=C(\C#N)S(=O)(=O)c3ccccc3)c(N3CCN(Cc4ccccc4)CC3)nc12	u	-6%	x	u
COc1ccc(CCN=C(N)NS(=O)(=O)c2ccccc2)cc1	-4.6%	1%	5	-3%
Cc1ccc(-c2csc(NC(=O)c3c(C)noc3C)n2)cc1C	-5.5%	x	x	9%
CCCCC(CC)Cn1c2nc3ccccc3nc2c2c(=N)oc(C)nc21 (stereo not drawn)	x	-8%	7	x
COc1ccc(NC(=O)Nc2cc(C(C)(C)C)on2)cc1OC	0.0%	14%	x	2%
CCCCN1C(=O)C(O)=C(C(C)=O)C1c1ccccc1[N+](=O)[O-] (stereo not drawn)	6.0%	2%	1	1%
Clc1ccccc1C(c1ccccc1)(c1ccccc1)n1ccnc1	-2.2%	u	-16&-12&3&-14	3%
Cc1nc(S(=O)(=O)c2ccc(Cl)cc2)nc2c1CCC2	-3.9%	-5%	1	9%
O=C(CC1(CC(=O)N2CCOCC2)CCCC1)Nc1ccc(F)cc1	-2.2%	x	x	2%
CCOc1ccc(NC2CCN(C(C)=O)CC2)cc1	-1.6%	-10%	-10	-5%
O=C(c1cc(COc2ccc(F)cc2Cl)on1)N1CCCCC1c1cccnc1 (stereo not drawn)	-3.0%	-24%	x	26%
CCCCCCCC(=O)Nc1cc(C(=O)NCc2ccc(C)cc2)ccc1N1CCC2(CC1)CC(c1ccccc1)=NO2	-4.8%	1%	x	0%
Cc1ccccc1OC(C)C(=O)NC1CCCC1 (stereo not drawn)	0.3%	-7%	-3	-1%
CC(=O)c1ccc(OCC(=O)OC(C)C(=O)NC2CCCCC2C)cc1 (stereo not drawn)	-2.7%	x	x	-6%
CC1Cc2ccccc2N1C(=O)CCS(=O)(=O)c1cccc2nonc12 (stereo not drawn)	2.7%	-1%	-2	6%
Cc1ccc(S(=O)(=O)N2CCCC(C(=O)Nc3ccc(NC(=O)c4ccccn4)cc3)C2)cc1 (stereo not drawn)	-0.5%	-12%	-2	-3%
COc1ccccc1CN(Cc1nc2ccccc2c(=O)[nH]1)C(=O)Nc1ccccc1	0.0%	-9%	-3	1%
CN(Cc1ccccc1)C(=O)Nc1ccccc1	-3.0%	-6%	3	-5%
C=CCn1c(-c2cccnc2)n[nH]c1=S	2.8%	-8%	6	-14%
CC1CCC2(CC1)NC(=S)N(c1ccccc1)N2 (stereo not drawn)	2.5%	-22%	7	-3%
CCOc1ccc(-n2ccc(=O)c(C(=O)Nc3ccc(S(=O)(=O)Nc4ncccn4)cc3)n2)cc1	-0.5%	-2%	x	-3%
CC(=O)Nc1cc(ON=C(C)C)cc([N+](=O)[O-])c1	-5.4%	-6%	5	-11%

One compound at a time (already shown). Order of values: Rango complex inh, miR-21 reporter, GLA inh pH 4.5, Rango dissoc inh
Entry for Cc1ccc(S(=O)(=O)N2CCCC(C(=O)Nc3ccc(NC(=O)c4ccccn4)cc3)C2)cc1 (stereo not drawn) → -0.5%, -12%, -2, -3%
Entry for Cc1ccccc1OC(C)C(=O)NC1CCCC1 (stereo not drawn) → 0.3%, -7%, -3, -1%
Entry for CC(=O)Nc1cc(ON=C(C)C)cc([N+](=O)[O-])c1 → -5.4%, -6%, 5, -11%

The results go on:
SMILES	Rango complex inh	miR-21 reporter	GLA inh pH 4.5	Rango dissoc inh
Cc1cccc(NC(=O)C2(c3cccs3)CCOCC2)n1	u	-1%	5	-12%
CCN(CC)CCCN1C(=O)C(=O)/C(=C(/O)c2ccccc2)C1c1cc(OC)ccc1OC (stereo not drawn)	0.5%	-1%	0	5%
O=P(O)(CP(=O)(c1ccccc1)c1ccccc1)c1ccccc1O	-1.7%	-1%	0	12%
Nc1nc(N)nc(-c2ccccc2-c2nc(N)nc(N)n2)n1	-2.4%	-9%	4	-9%
CCOc1ncccc1C(=O)N1CCN(S(=O)(=O)c2ccccc2)CC1	0.1%	2%	-3	-9%
COc1ccc(Cc2nnc(NC(=O)Nc3ccccc3)s2)cc1OC	-2.6%	-2%	x	1%
CN1C(=O)CSc2ccc(NC(=O)NCCC3=CCCCC3)cc21	-0.9%	10%	-14	1%
Cn1c(NCCN(CCO)CCCc2ccc([N+](=O)[O-])cc2)cc(=O)n(C)c1=O	-2.6%	x	x	-4%
COc1ccc(N2CCN(S(=O)(=O)c3ccc(Br)s3)CC2)cc1	-0.5%	-6%	7	-2%
COc1cccc(SCc2noc(C(=O)NCCCN3CCOCC3)c2C(=O)NCCCN2CCOCC2)c1	1.0%	x	x	-8%
O=C(NCCN1CCOCC1)C1CC(=O)N(c2ccc(Cl)cc2)C1 (stereo not drawn)	-4.8%	13%	x	18%
COc1ccccc1C(=O)N1CCN(S(=O)(=O)Cc2ccccc2)CC1	1.9%	1%	3	-2%
CCOc1ccc2ncc(S(=O)(=O)c3ccccc3)c(N3CCN(c4ccccc4)CC3)c2c1	-0.7%	x	x	-2%
Cc1ccc(F)cc1NC(=O)COC(=O)c1ccc2ncsc2c1	-3.6%	x	x	-2%
COc1ccccc1C(=O)OCC(=O)c1cccc([N+](=O)[O-])c1	-0.8%	-2%	5	17%
O=C(NC(=O)c1ccccc1Cl)C(=O)Nc1ccc(Cl)cc1	0.0%	-7%	x	14%
O=[N+]([O-])c1ccc(O)c(/C=N/n2c(CO)nc3ccccc32)c1	-1.5%	1%	-28	u
COc1ccc(OC)c(NC(=O)COC(=O)c2ccc(OC)c(S(=O)(=O)N3CCOCC3)c2)c1	-0.4%	x	x	3%
Cc1cccc(NC(=O)/C(=C\c2cccs2)NC(=O)c2ccccc2)c1	0.0%	2%	-2	9%
COC(=O)Cc1n[nH]c(=S)[nH]c1=O	4.9%	2%	4	-10%
COc1ccc(C(C(=O)NC(C)(C)C)N(C(=O)CCC(=O)Nc2cc(C)on2)c2ccc(C)c(C)c2)cc1 (stereo not drawn)	-0.8%	-1%	x	4%
CN(C)CCOC(=O)C12CC3CC(C1)CC(C(=O)OCCN(C)C)(C3)C2	2.0%	-4%	0	-12%
COCCNC(=O)CCn1nc(-c2ccc(C)cc2)ccc1=O	-2.2%	0%	x	-17%
O=C1[C@H]2[C@@H](c3ccc(F)cc3)N3C(=O)N(c4cccc(Cl)c4)C(=O)[C@@]3(Cc3ccccc3)[C@H]2C(=O)N1C1CCCCC1	-2.0%	x	x	7%
COc1ccccc1C1NC(=O)c2ccccc2O1 (stereo not drawn)	-2.1%	-1%	x	4%
COc1cc(C(=O)NCC(=O)NNC(=O)C2COc3ccccc3O2)cc(OC)c1OC (stereo not drawn)	-0.8%	x	x	-3%
O=C(Nc1ccc(O)cc1C(=O)O)c1cccc(Br)c1	1.0%	2%	-3	0%
CCN(CC)CCn1c2c(c(SCC(=O)Nc3cccc4ccccc34)nc1=O)CCC2	0.4%	x	x	-2%
CC(=O)c1cccc(NC(=O)CSc2nnc(C(C)N(C)C)n2-c2ccc(F)cc2)c1 (stereo not drawn)	-5.2%	6%	x	9%
Clc1ccc(C2=Nn3c(nnc3-c3n[nH]c4c3CCC4)SC2)cc1	-0.2%	6%	-7	2%
OC(CC#CCN1CCCC1)(c1ccccc1)c1ccccc1	3.1%	-5%	3	-2%

Assay outcomes from PubChem BioAssay.
